Polio RdRp inh – poliovirus RdRp elongation inhibitors, primary screen, biochemical, fluorescence polarization, total intensity; Genome polyprotein (Poliovirus type 1 (strain Mahoney)), P03300; % elongation, % (compound at 16.7 µg/mL); poliovirus polymerase elongation; hits give low values; actives 0.66% (n = 150,000); in the data active = % elongation below about 90%; also: some results filed as inactive read as strong as hits
Target sequence (P03300 1749-2209 limits assumed): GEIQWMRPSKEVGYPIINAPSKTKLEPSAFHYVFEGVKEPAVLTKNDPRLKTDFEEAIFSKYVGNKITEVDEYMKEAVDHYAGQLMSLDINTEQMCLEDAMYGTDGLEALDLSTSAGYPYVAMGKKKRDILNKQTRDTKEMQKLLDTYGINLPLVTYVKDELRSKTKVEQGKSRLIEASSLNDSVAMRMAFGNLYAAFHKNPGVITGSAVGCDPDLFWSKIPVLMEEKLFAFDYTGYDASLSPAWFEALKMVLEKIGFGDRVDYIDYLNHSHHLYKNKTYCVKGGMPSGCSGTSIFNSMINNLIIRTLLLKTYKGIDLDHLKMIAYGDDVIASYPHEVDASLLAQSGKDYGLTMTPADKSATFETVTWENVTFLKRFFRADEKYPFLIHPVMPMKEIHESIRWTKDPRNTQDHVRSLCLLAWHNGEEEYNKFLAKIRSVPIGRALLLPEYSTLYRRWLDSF
Mtb MbtI inh – MbtI salicylate synthase inhibitors, primary screen, biochemical, fluorescence intensity; actives 0.89% (n = 100,000); AID 493033, 2011; inhibition, %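 (about 17 µg/mL by stock and volumes)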; purified MbtI enzyme, fluorescence intensity read-out;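 active = above 50% in both replicates, above 80% if mildly self-fluorescent; inactive = the rest, strongly fluorescent compounds included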;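 also: 0% = mean of negative and 100% = mean of positive controls; one replicate is shown; some compounds called inactive have numbers as strong as hits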
Mtb MenB inh – M. tuberculosis MenB inhibitors, primary screen, biochemical, absorbance. 1,4-dihydroxy-2-naphthoyl-CoA synthase (Mycobacterium tuberculosis (strain ATCC 25618 / …. MenB enzyme assay, absorbance read-out; some hits fall short of the stated cut. inhibition, %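 (about 12 µg/mL by stock and volumes)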. actives 0.43% (n = 100,000);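 active = mean of two replicates above 30%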;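 also: 0% = no compound and 100% = wells with inactive enzyme; the first replicate is given; strong numbers were not always called active; inactives centre near -10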
Target sequence (P9WNP5 whole entry, looked up): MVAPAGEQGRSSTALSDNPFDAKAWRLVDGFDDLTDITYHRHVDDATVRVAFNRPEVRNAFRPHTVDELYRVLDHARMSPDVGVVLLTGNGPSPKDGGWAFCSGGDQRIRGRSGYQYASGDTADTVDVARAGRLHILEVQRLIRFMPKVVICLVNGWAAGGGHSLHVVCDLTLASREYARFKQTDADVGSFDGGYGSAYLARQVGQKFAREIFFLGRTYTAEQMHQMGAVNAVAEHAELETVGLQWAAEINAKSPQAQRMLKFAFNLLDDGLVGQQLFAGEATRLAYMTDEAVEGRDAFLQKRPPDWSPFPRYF
Polio RdRp inh intensity – also measured in Polio RdRp inh; calls as there; % elongation; measured here: total intensity read-out; formula for this scale not given here;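 total fluorescence in place of polarization; lower means less elongation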
* marks the source's active call; other numbers are inactive results; i = inactive; . = no result given; & = joins results of further samples.

SMILES | Polio RdRp inh | Polio RdRp inh intensity | Mtb MbtI inh | Mtb MenB inh
COC(=O)c1cc(S(=O)(=O)Nc2ccc(C(C)C)cc2)c[nH]1 | 101 | 99 | -6 | -17
Cc1ccc2c(c1)C(O)(C(=O)NC(N)=O)C(=O)N2 (configuration not stated) | 100 | 103 | -9 | -9
CCOC(=O)c1cccc(Nc2ncnc3ccccc23)c1 | 103 | 102 | 12 | -23
NC(=O)c1cnn(Cc2ccccc2)c1N | 99 | 100 | -1 | -4
CCOc1ccc(NC2=CC(=O)C=CC2=O)cc1 | 100 | 104 | 98* | .
CCn1c(=O)c(=O)[nH]c2c(=O)oc3ccc(S(=O)(=O)Nc4ccc(OC)cc4)cc3c21 | 101 | 103 | 29 | -4
O=C(COc1ccc2c3c(c(=O)oc2c1)CCCC3)Nc1cccc(Br)c1 | 102 | 106 | 12 | .
COc1nc(Oc2ccc(/C=N/O)cc2)nc(N(C)C)n1 | 101 | 98 | 3 | 0
CCC1CCCCN1CC(O)COCc1cccc(OC)c1 (configuration not stated) | 99 | 109 | -6 | -12
Cc1nc2cc(Cl)ccc2c(=O)n1CC1CCCO1 (configuration not stated) | 108 | 108 | 24 | -27
CN(Cc1ccccc1)CN1C(=O)NC(C)(c2ccccc2)C1=O (configuration not stated) | 101 | 99 | 4 | 2
Cc1nnc(N/N=C/CCc2ccccc2)[nH]c1=O | 99 | 102 | -2 | 14
C/C(=N\O)C12CC3(C)CC(C)(CC(C)(C3)C1)C2 | 103 | 94 | -7 | 5
Cc1ccc(S(=O)(=O)c2ccccc2)cc1S(=O)(=O)N1CCCCC1 | 99 | 102 | -19 | -17
CN=C(NC#N)NCCSCc1nc[nH]c1C | 99 | 102 | -11 | 5
COCCn1c(-c2ccccc2)nc(=S)c2c1CC(C)(C)OC2 | 103 | 108 | -2 | -18
Cc1cccn2cc(CNC(=O)C3CCCCC3)nc12 | 102 | 104 | 104 | -9
CCN(CC)c1nc(C(=O)Nc2ccc(Br)cc2)cs1 | 106 | 104 | 3 | -7
Cc1cc(C(=O)OCC(=O)N(C)C2CCCCC2)c2ccccc2n1 | 101 | 98 | -8 | .
CN1CCCN(C(=O)c2cccnc2Cl)CC1 | 101 | 102 | -4 | .
COC(=O)c1ccc(-n2c(C)cc3ccccc32)s1 | 101 | 103 | -5 | -1
O=C(Nc1cccnc1)c1cc(=O)c2ccccc2o1 | 99 | 100 | 26 | 14
CCC1CCCCN1C(=O)Cn1c(C(=O)OC)cc2sccc21 (configuration not stated) | 103 | 102 | 9 | -17
O=C(OCC(=O)c1ccc[nH]1)c1ccc(S(=O)(=O)N2CCCCC2)cc1 | 96 | 95 | 8 | -2
O=c1[nH]nc(-c2nnc3n2-c2ccccc2SC3)c2ccccc12 | 104 | 104 | -8 | 8
CC(C)(C)CC(C)(C)NC(=O)C1CCCCC1 | 102 | 106 | 3 | .
Cc1cnc(C(=O)Nc2ccc(S(=O)(=O)NC(C)C)cc2)cn1 | 102 | 100 | -18 | -16
Cc1ccc(C(=O)Oc2ccc(/C=N/NC(N)=O)cc2)cc1 | 99 | 103 | -4 | 1
CCN1CN(Cc2ccccc2)CNC1=S | 107 | 108 | . | -15
CCc1ccc(NC(=O)CS(=O)(=O)c2ccc(Cl)cc2)cc1 | 102 | 111 | -9 | .
CC(Oc1ncnc2ccccc12)C(=O)Nc1ccccc1F (configuration not stated) | . | . | -10 | -4
CCCOc1ccc(-c2nc(=S)[nH][nH]2)cc1 | 102 | 102 | 5 | -17
Cc1cc(-c2nc3ncccc3o2)ccc1NC(=O)c1ccccc1 | 103 | 104 | -65 | -12
O=C(N/N=C/C1=C(Sc2nc3ccccc3o2)CCCC1)c1ccncc1 | 101 | 107 | 8 | -42
Cc1nc2c(C)cccn2c1C(Nc1ccc(F)cc1)c1ccccc1 (configuration not stated) | 101 | 103 | -86 | -1
COC(=O)c1c[nH]c(=S)n1C | 106 | 103 | 32 | -29
Cc1ccc(S(=O)(=O)/N=C(\N)Nc2nc3ccccc3o2)cc1 | 105 | 101 | 0 | -36
C=CCN(Cc1nc(-c2ccc(C)cc2)no1)C(=O)C1CCCCC1 | 104 | 106 | -3 | -31
CC(=O)Nc1c(C(=O)N2CCN(C(=O)c3ccco3)CC2)oc2ccccc12 | 102 | 104 | 21 | -4
Cc1ccc(SC(C)C(=O)NCc2ccncc2)cc1 (configuration not stated) | 105 | 112 | . | -10
CCOC(=O)c1cc(-c2ccccc2)n(CC(=O)NC(C)(C)C)c1C | 103 | 102 | -18 | -23
COc1cccc(CN(C)C(=O)C2CC(=O)N(CCc3ccccc3)C2)c1 (configuration not stated) | 105 | 101 | -3 | -30
Cc1nc2scc(-c3ccccc3)c2c(=O)n1/N=C/N(C)C | 44 | 233 | 5 | -16
Cc1cc(-c2csc(-c3cccnc3)n2)c(C)n1C | 103 | 104 | -38 | 6
N/N=C(/C(=N/N)c1ccccc1)c1ccccc1 | 102 | 104 | 5 | 1
O=C(CN1CCCCCCC1)Nc1ccc2c(c1)OCO2 | 103 | 102 | -8 | 6
COc1ccc(Cn2ccn(Cc3ccccc3)c(=O)c2=O)cc1 | 102 | 101 | i | -9
C#CCN=Cc1c(O)[nH]c(=O)[nH]c1=O | 113 | 118 | 26 | -20
Cc1nn2c(c1-c1ccccc1)NC(C(F)(F)F)(C(F)(F)F)NC2=O | 106 | 112 | . | 3
COc1cccc(C(=O)Nc2c3c(nc4ccccc24)CCCC3)c1 | 102 | 101 | -2 | -9
CC1(C)Cn2c(nc(=O)c3c2NC(=O)C3(O)C(F)(F)F)S1 (configuration not stated) | 102 | 104 | 3 | -3
O=C(CNc1ncnc2ccccc12)NCCO | 104 | 103 | -7 | -7
CCOc1ccccc1C(=O)OCC(=O)NC1CC1 | 102 | 105 | 0 | -1
CC(C)n1c(=O)c2oc3ccccc3c2n(CC(=O)NCc2ccccc2)c1=O | 103 | 104 | 144 | -11
CCOC(=O)C1=C(C)N(CCO)C(=O)NC1c1ccc(O)cc1 (configuration not stated) | 105 | 108 | . | -19
O=C1C=C2N(c3ccccc3)CCOC2(O)c2ccccc21 (configuration not stated) | 37* | 69* | . | -48
CCc1cc2c(SCC(=O)C(C#N)=C3N(C)c4ccccc4N3C)ncnc2s1 | 106 | 115 | 3 | -89
C=CCn1c(=NC(=O)CCCC)sc2cccc(OC)c21 | 102 | 102 | -9 | -17
c1ccc2c(CN3CCNCC3)cccc2c1 | 97 | 102 | . | 3
CCOC(=O)c1cc(-c2ccc(F)cc2)n(CC(=O)N(C)Cc2ccccc2)c1C | 104 | 108 | -6 | -22
(next part)
SMILES | Polio RdRp inh | Polio RdRp inh intensity | Mtb MbtI inh | Mtb MenB inh
Cc1ccc(-c2nnn(CC(=O)NC(C)C)n2)cc1 | 101 | 103 | -6 | 39
CCCCNC(=O)CN1C(=O)c2ccccc2S1(=O)=O | 100 | 101 | -5 | -8
C=CCN=Cc1c(O)[nH]c2ccccc12 | 99 | 102 | 2 | -15
O=C1CCS(=O)(=O)c2ccccc2N1Cc1ccccc1 | 103 | 99 | 4 | -7
Cc1ccc(OCc2nc(SCC(=O)N3CCc4ccccc43)n[nH]2)cc1 | 105 | 109 | 0 | -25
O=S(=O)(c1ccc(NC(=S)NC2CCCCC2)cc1)N1CCOCC1 | 102 | 102 | -3 | -4
c1ccc(COc2ccc(Oc3cnccn3)cc2)cc1 | 106 | 107 | 16 | -12
COC(=O)c1ccc(NN)cc1 | 99 | 95 | . | 7
Clc1ccc2nc(-c3cccnc3)c(Nc3ccccc3)n2c1 | 100 | 103 | -2 | -6
O=S(=O)(Cc1ccccc1)N1CCN(Cc2ccco2)CC1 | 101 | 103 | -4 | -17
COc1ccc(CCN2C(=O)CC(Nc3cc(C(=O)O)ccc3C)C2=O)cc1 (configuration not stated) | 105 | 107 | 45 | -17
CN1CCC(NCCO)CC1 | 106 | 101 | -9 | -33
COc1ccc(-n2c(C)cc(CNS(=O)(=O)c3ccccc3)c2C)cc1 | 101 | 104 | -6 | 5
O=C(C1CCCCC1)n1cnc2ccccc21 | 105 | 107 | . | 2
COc1nc(-c2ccccc2)ccc1-c1noc(C(C)C)n1 | 100 | 104 | 90 | 24

Complete entries, looked up by structure:
Listed for COc1ccc(CCN2C(=O)CC(Nc3cc(C(=O)O)ccc3C)C2=O)cc1 (configuration not stated) = Polio RdRp inh: 105; Polio RdRp inh intensity: 107; Mtb MbtI inh: 45; Mtb MenB inh: -17
Listed for O=S(=O)(c1ccc(NC(=S)NC2CCCCC2)cc1)N1CCOCC1 = Polio RdRp inh: 102; Polio RdRp inh intensity: 102; Mtb MbtI inh: -3; Mtb MenB inh: -4

Going on with the list:
SMILES | Polio RdRp inh | Polio RdRp inh intensity | Mtb MbtI inh | Mtb MenB inh
C/C(=N/NC(N)=S)c1ccc(Br)s1 | 101 | 102 | 27 | 13
O=c1[nH]cc(N=Cc2ccc3c(c2)OCO3)c(=O)[nH]1 | 99 | 103 | -12 | -17
O=P(Cc1ccccc1)(c1ccccc1)N(Cc1cccs1)CC1CCCO1 (configuration not stated) | 103 | 111 | . | -1
COc1ccc(NC(=O)CN(C)C(C)C(=O)Nc2ccc(NC(C)=O)cc2)cc1 (configuration not stated) | 104 | 100 | 8 | 13
CC(=O)Nc1ccc(NC(=O)C(C)OC(=O)C2CCN(C(=O)Nc3ccccc3)CC2)cc1 (configuration not stated) | 103 | 93 | -9 | -17
CCOC(=O)c1csc(N)n1 | 106 | 109 | . | -9
Cc1oc2cc3c(C(=O)N4CCN(C)CC4)c(C)oc3cc2c1C(=O)N1CCN(C)CC1 | 103 | 104 | . | -6
CC(=O)Nc1ccc(NC(=O)C(C)Sc2n[nH]c(=O)n2Cc2ccccc2)cc1 (configuration not stated) | 104 | 107 | -9 | -4
CCOc1ccc(CNc2ccc(NC(=O)c3ccco3)cc2)cc1OCC | 101 | 102 | 8 | -10
CCN(CC)C(=O)N1CCN(C)CC1 | 100&101 | 100&103 | -12&-9 | -6&1
Cn1cnnc1SC(C(=O)c1ccccc1)c1ccccc1 (configuration not stated) | 101 | 102 | -2 | 0
CCc1ccc(NC(=O)N2CCc3cc(S(=O)(=O)N4CCC(C)CC4)ccc32)cc1 | 101 | 106 | -11 | 0
O=C(NCC1CCCO1)c1ccc(-n2ccc3ccccc32)s1 (configuration not stated) | 99 | 101 | -125 | -24
Cc1ccsc1CNC(=O)c1ccc(Cl)cc1 | 102 | 105 | 0 | 5
Cc1cc(C)c2c(n1)sc1c(=O)n(Cc3ccccc3Cl)nnc12 | 103 | 104 | -2 | -24
Cc1csc(SCC(=O)NCc2cccs2)n1 | 110 | 110 | -12 | -18
Cc1ccccc1/C=N/NC(N)=S | 100 | 99 | 0 | -1
COc1ccc(C2C(C(=O)NCc3ccc(F)cc3)CCC(=O)N2c2ccc3c(c2)OCO3)cc1 (configuration not stated) | 105 | 98 | 4 | 0
COc1ccc(-c2nc(SCC(=O)NC3CCCC3)c(-c3ccc(C)cc3)[nH]2)cc1 | 100 | 103 | -40 | -34
O=C(OCC(=O)N1CCN(C(=O)COC(=O)c2ccncc2)CC1)c1ccncc1 | 103 | 112 | -8 | -15
Cc1cccc(C)c1NC(=S)N1CCCCC1CO (configuration not stated) | 106 | 114 | -10 | 7
COC(=O)c1cc(-c2ccccc2)n(CC(=O)O)c1C | 100 | 101 | 4 | -3
Cc1noc(C)c1-c1nc(CSc2ccccc2)no1 | 103 | 115 | -10 | 2
CC(C)C(=O)c1cccs1 | 105 | 108 | -8 | -5
O=C(NC(=S)NCC1CCCCC1)c1ccco1 | 100 | 105 | -4 | -35
O=c1[nH]nc(Sc2ncccc2C(F)(F)F)n1C1CCCCC1 | 102 | 95 | 14 | -21
COc1cc(NC(=O)C(c2ccccc2)C2CCCC2)cc(C(F)(F)F)c1 (configuration not stated) | 97 | 97 | -7 | -5
O=C(COC(=O)C1CC2CCCC(C1)C2=O)c1ccc(CC(=O)N2CCOCC2)s1 (configuration not stated) | 109 | 113 | -1 | -26
C[C@H](NS(=O)(=O)c1cccc2nsnc12)C(=O)Nc1cccc(F)c1 | 93 | 100 | 34 | 5
Cn1c(CNC(=O)c2ccc(Cl)cc2)nnc1SCC(=O)N1CCc2ccccc2C1 | 100 | 102 | -4 | 11

Structures from the list above containing an aryl thioether with sulfur outside any ring, in the order listed:
SMILES | Polio RdRp inh | Polio RdRp inh intensity | Mtb MbtI inh | Mtb MenB inh
O=C(N/N=C/C1=C(Sc2nc3ccccc3o2)CCCC1)c1ccncc1 | 101 | 107 | 8 | -42
Cc1ccc(SC(C)C(=O)NCc2ccncc2)cc1 (configuration not stated) | 105 | 112 | . | -10
CCc1cc2c(SCC(=O)C(C#N)=C3N(C)c4ccccc4N3C)ncnc2s1 | 106 | 115 | 3 | -89
Cc1ccc(OCc2nc(SCC(=O)N3CCc4ccccc43)n[nH]2)cc1 | 105 | 109 | 0 | -25
CC(=O)Nc1ccc(NC(=O)C(C)Sc2n[nH]c(=O)n2Cc2ccccc2)cc1 (configuration not stated) | 104 | 107 | -9 | -4
Cn1cnnc1SC(C(=O)c1ccccc1)c1ccccc1 (configuration not stated) | 101 | 102 | -2 | 0
Cc1csc(SCC(=O)NCc2cccs2)n1 | 110 | 110 | -12 | -18
COc1ccc(-c2nc(SCC(=O)NC3CCCC3)c(-c3ccc(C)cc3)[nH]2)cc1 | 100 | 103 | -40 | -34
Cc1noc(C)c1-c1nc(CSc2ccccc2)no1 | 103 | 115 | -10 | 2
O=c1[nH]nc(Sc2ncccc2C(F)(F)F)n1C1CCCCC1 | 102 | 95 | 14 | -21
Cn1c(CNC(=O)c2ccc(Cl)cc2)nnc1SCC(=O)N1CCc2ccccc2C1 | 100 | 102 | -4 | 11
